Screens from PubChem.
STK33 kinase inh – inhibitors of purified STK33 kinase, primary screen, biochemical, ADP-Glo luminescence, homogeneous, cell-free | hit rate 0.073% among 320,000 | MBP phosphorylation | AID 2661, 2010 | inhibition, % at 10 µM;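 active means inhibition at or above 25%, using the most active replicate where run in duplicate; inactive means inhibition below 25%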
Target sequence (Q9BYT3 whole entry, looked up): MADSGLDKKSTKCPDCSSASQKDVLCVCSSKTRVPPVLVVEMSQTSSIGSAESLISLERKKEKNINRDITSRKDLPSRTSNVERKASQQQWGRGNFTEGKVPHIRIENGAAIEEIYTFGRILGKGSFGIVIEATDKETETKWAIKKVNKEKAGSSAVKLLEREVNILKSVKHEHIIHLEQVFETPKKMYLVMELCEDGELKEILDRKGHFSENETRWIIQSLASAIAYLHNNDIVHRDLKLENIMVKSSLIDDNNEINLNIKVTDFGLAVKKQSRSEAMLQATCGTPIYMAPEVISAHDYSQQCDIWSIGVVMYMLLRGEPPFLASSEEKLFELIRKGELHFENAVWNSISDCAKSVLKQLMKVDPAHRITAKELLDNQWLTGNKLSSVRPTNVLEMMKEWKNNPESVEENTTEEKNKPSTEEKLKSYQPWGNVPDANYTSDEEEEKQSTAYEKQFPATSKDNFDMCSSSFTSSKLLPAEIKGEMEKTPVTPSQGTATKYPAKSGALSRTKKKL
The depositor's hits bear a star. Some of the compounds tested; most or all hits stand in other tables.

COc1ccccc1C(=O)Nc1cc(-c2ccc(C)cc2)no1 was read as STK33 kinase inh -1.0.
Screening O=C(NCC1CCCN1S(=O)(=O)c1ccccc1)C(=O)NC1CC1 (stereo unspecified) returned STK33 kinase inh -0.7.
`O=C(O)CC/C(=C\c1cccc(NC(=O)c2ccccc2Cl)c1)c1nc2ccccc2s1` gave STK33 kinase inh -2.6.
CC(C)CCOc1ccc(C(=O)NN2C(=O)NC3(CCCCC3)C2=O)cc1 was read as STK33 kinase inh -0.7.
For COc1ccc(NC(=O)Nc2ccccc2SC)cc1 the results were STK33 kinase inh 1.9.
`C=CCNc1nc2ccccc2c(=O)[nH]1` gave STK33 kinase inh 0.0.
For Cc1ncoc1C(=O)Nc1cccc(Cl)c1 the results were STK33 kinase inh -1.8.
For CCOc1ccc(NC(=O)c2sc3nc4n(c(=O)c3c2C)CCC4)cc1 the results were STK33 kinase inh 1.0.
For Cc1cc2c(OCC(O)CN3CCCCC3)cccc2[nH]1 (stereo unspecified) the results were STK33 kinase inh 1.1.
For C[C@]12C=CC(=O)C=C1CC[C@@H]1C2C(O)C[C@@]2(C)C1CC[C@]2(O)C(=O)COC(=O)CCC(=O)NC(CC(=O)O)C(=O)O (stereo partly specified) the results were STK33 kinase inh -0.8.
For COc1cccc(CN=C2Nc3ccccc3CS2)c1 the results were STK33 kinase inh 0.1.
For CC(C)(C)C(=O)NC1CCN(C(=O)N2CCCC2)CC1 the results were STK33 kinase inh -0.4.

Quoted at random: 4 entries already listed.
CC(C)CCOc1ccc(C(=O)NN2C(=O)NC3(CCCCC3)C2=O)cc1 was read as STK33 kinase inh -0.7.
For CC(C)(C)C(=O)NC1CCN(C(=O)N2CCCC2)CC1 the results were STK33 kinase inh -0.4.
`C=CCNc1nc2ccccc2c(=O)[nH]1` gave STK33 kinase inh 0.0.
For COc1cccc(CN=C2Nc3ccccc3CS2)c1 the results were STK33 kinase inh 0.1.

Next section:
For COc1ccc(/C=N/NC(=O)CCc2nc3ccccc3[nH]2)cc1 the results were STK33 kinase inh -0.3.
`Cc1c(CN2CCC(CO)(Cc3ccccc3)CC2)c2ccccc2n1C` gave STK33 kinase inh -1.1.
For CSc1nc(Sc2ccccc2)c2ccccc2n1 the results were STK33 kinase inh -0.5.
`Cc1onc(-c2c(Cl)cccc2Cl)c1NC(=O)NNc1c(Cl)cncc1Cl` gave STK33 kinase inh -0.8.
For CC(C)NC(=O)[C@H]1N2C(=O)c3ccccc3C2SC1(C)C (stereo partly specified) the results were STK33 kinase inh -0.1.
`Cc1ccc(C(=O)O)c(C(=O)Nc2nc(C)cs2)c1` gave STK33 kinase inh -0.4.
`CC(C)OC(=O)c1cccnc1SCC(=O)N(C)c1ccccc1` gave STK33 kinase inh -2.7.
`O=C1CSC(=Nc2cccc([N+](=O)[O-])c2)N1` gave STK33 kinase inh -1.9.
Screening CCOC(=O)c1c(-c2ccccc2)csc1NC(=O)c1ccc(N2C(=O)CCC2=O)cc1 returned STK33 kinase inh 2.6.
For COc1cc(C(=O)Nc2cccc(NC(=O)c3ccccc3)c2)cc(OC)c1OC the results were STK33 kinase inh -0.3.
Screening Cn1c(C(=O)c2ccccc2[N+](=O)[O-])nc2ccccc21 returned STK33 kinase inh 2.2.
`O=C(NC(=S)Nn1cnnc1)c1ccc(F)cc1Cl` gave STK33 kinase inh 0.4.
Cc1c(C(=O)N2CCc3ccccc3C2)oc2ccccc12 was read as STK33 kinase inh -1.0.
`COc1ccc(/C=C2\CCCC3C2=NN(C(=O)c2scnc2C)C3c2ccc(OC)c(OC)c2)cc1OC` (stereo unspecified) gave STK33 kinase inh -0.3.
`O=C(NCC1CCCO1)C(c1cccs1)N(C(=O)c1ccc(CN2CCOCC2)o1)c1ccc(Cl)cc1` (stereo unspecified) gave STK33 kinase inh 4.2.
For Fc1ccc(-c2nc(-c3cnccn3)no2)c(Cl)c1 the results were STK33 kinase inh 2.0.
O=C(NNc1ncnc2c1cnn2-c1ccccc1)c1ccco1 was read as STK33 kinase inh 1.4.
`CN1Cc2c(N3CCOCC3)nc(SCCC#N)c(C#N)c2CC1(C)C` gave STK33 kinase inh -0.2.
`Cc1ccc(OCC(=O)NCCCNC(=O)c2ccc(C)nc2)cc1` gave STK33 kinase inh 0.0.
CC1=C(C(=O)OCC2CCCO2)C(c2coc3ccccc3c2=O)C2=C(CC(C)(C)CC2=O)N1 (stereo unspecified) was read as STK33 kinase inh -1.1.
`CN1CCN(C(=O)C2=C[C@@H](C3CCCCC3)C[C@@H](OCCCCO)O2)CC1` gave STK33 kinase inh -0.5.
For COc1ccc(CN2CCNC(=O)C2CC(=O)NCCCn2cccn2)c(OC)c1 (stereo unspecified) the results were STK33 kinase inh -1.7.
Screening Cc1cccc(-c2nc3cc(NC(=O)C4CCCO4)ccc3o2)c1 (stereo unspecified) returned STK33 kinase inh 1.5.
For Cc1cc(C)c(C)c(OCC(=O)NCc2nc(-c3ccccc3)no2)c1 the results were STK33 kinase inh -1.8.
`CCCCNC(=O)c1cc2c(-c3ccc(Cl)cc3)nn(C)c2s1` gave STK33 kinase inh -0.8.
For O=C(NNC(=O)c1ccccc1OCc1ccccc1)c1ccccc1O the results were STK33 kinase inh -0.7.
CN(CC1CCCN(CCc2ccc(Cl)cc2)C1)C(=O)CC(F)(F)F (stereo unspecified) was read as STK33 kinase inh 0.9.
For COCCSc1nnc(NC(=O)C2CC(=O)N(C3CCCC3)C2)s1 (stereo unspecified) the results were STK33 kinase inh 0.0.
For Cc1onc(COc2ccccc2O)c1Br the results were STK33 kinase inh -0.8.
Screening COc1ccc(-c2cn(CC3CCCCC3)nn2)cc1 returned STK33 kinase inh -1.1.
For Cc1ccccc1C(=O)N=c1sccn1C the results were STK33 kinase inh -0.8.
`CC(=O)N1c2ccc(S(=O)(=O)NCCC(=O)NC3CCCC(C)C3C)cc2CC1C` (stereo unspecified) gave STK33 kinase inh -0.6.
For CC(=O)Nc1c(Br)cc(N2C(=O)CCC2=O)cc1Br the results were STK33 kinase inh -1.1.
Screening CN1CCN(c2ccc(-c3cccc(NC(=O)COc4ccc(Cl)cc4)c3)nn2)CC1 returned STK33 kinase inh 0.0.
`Clc1ccc(-c2ccc(/C=N/Nc3cc(N4CCOCC4)nc(N4CCOCC4)n3)o2)cc1` gave STK33 kinase inh -1.5.
Cn1c(CCNC(=O)c2ccccc2)nc2cc(NC(=O)c3ccco3)ccc21 was read as STK33 kinase inh -1.1.

Part of the list above in order of length of the SMILES, highest first:
`CC(=O)N1c2ccc(S(=O)(=O)NCCC(=O)NC3CCCC(C)C3C)cc2CC1C` (stereo unspecified) gave STK33 kinase inh -0.6.
Cn1c(CCNC(=O)c2ccccc2)nc2cc(NC(=O)c3ccco3)ccc21 was read as STK33 kinase inh -1.1.
`CCCCNC(=O)c1cc2c(-c3ccc(Cl)cc3)nn(C)c2s1` gave STK33 kinase inh -0.8.
For CC(=O)Nc1c(Br)cc(N2C(=O)CCC2=O)cc1Br the results were STK33 kinase inh -1.1.
Screening COc1ccc(-c2cn(CC3CCCCC3)nn2)cc1 returned STK33 kinase inh -1.1.
For Cc1onc(COc2ccccc2O)c1Br the results were STK33 kinase inh -0.8.

Carrying on.
`C/C(=N\NC(=S)NC1CCCCC1)c1cccc(Br)c1` gave STK33 kinase inh -0.3.
For COc1cccc(NC(=O)CN(C)CC(=O)Nc2ccc(Cl)cc2[N+](=O)[O-])c1 the results were STK33 kinase inh -0.5.
Screening Cc1ccc(-c2csc(-c3cc(C)on3)n2)cc1 returned STK33 kinase inh -0.8.
`CC1CCN(c2ccc(C(=O)Nc3nnc(C4CC4)s3)cc2[N+](=O)[O-])CC1` gave STK33 kinase inh 0.7.
COc1ccc2c(c1)N(C)/C(=C1/SC(=NCc3ccccc3)N(c3ccccc3)C1=O)S2 was read as STK33 kinase inh -1.3.
`COC(=O)c1sc(N2C(=O)c3oc4ccccc4c(=O)c3C2c2cccc(O)c2)nc1C` (stereo unspecified) gave STK33 kinase inh -0.2.
For CCc1ccccc1NC(=O)CN(C)C(=O)COc1ccc(C)nc1[N+](=O)[O-] the results were STK33 kinase inh -0.5.
For CCOC(=O)CN1C(=O)C(C)(C)Oc2ccc(C(=O)Nc3ccccc3OC)cc21 the results were STK33 kinase inh 7.5.
Cc1ccc(-n2nc3ccc(N)cc3n2)cc1C was read as STK33 kinase inh 2.5.
Screening C/C(Cc1ccccc1)=N\NC(=O)CNC(=O)c1ccccc1F returned STK33 kinase inh 0.3.
For O=C(NNC(=O)c1ccncc1)c1ccncc1 the results were STK33 kinase inh -0.4.
For COc1ccc(C(=O)NCC(C)NC(=O)c2ccc(OC)c(OC)c2)cc1OC (stereo unspecified) the results were STK33 kinase inh -1.8.
For CCN(CC(=O)NC(C)C)C(=O)CCNC(=O)c1ccc(Cl)cc1 the results were STK33 kinase inh -0.1.
`O=C(Cc1ccccc1F)NCC(=O)Nc1ccccc1Br` gave STK33 kinase inh -1.3.
For COc1cc2[nH]c(=O)n(CCCCCC(=O)NCCCN3CCCC3=O)c(=O)c2cc1OC the results were STK33 kinase inh 0.2.
CC(C)(C)c1ccc(-n2ncc3c2CCCC3NC(=O)CCN2CCCO2)cc1 (stereo unspecified) was read as STK33 kinase inh -0.9.
`CC(C)OC(=O)c1ccc(COC(=O)c2cnccn2)cc1` gave STK33 kinase inh 1.3.
`O=C(Nc1ccc(C(=O)N2CCOCC2)cc1)c1cccs1` gave STK33 kinase inh 2.7.
Screening Cc1nc2scc(-c3ccc(Cl)cc3)c2c(=O)o1 returned STK33 kinase inh -0.2.
For O=C(O)c1c2c(nc3ccccc13)/C(=C/c1ccccc1[N+](=O)[O-])CCC2 the results were STK33 kinase inh -0.9.
Screening CCOC(=O)c1ccc(NC(=O)C(=O)NCc2ccc(/C=C(/C#N)C(=O)NCCOC)o2)cc1 returned STK33 kinase inh -0.6.
Screening O=c1[nH]c2cccnc2n1Cc1ccco1 returned STK33 kinase inh -0.7.
CS(=O)(=O)N1CCC(c2noc(-c3ccc(C(F)(F)F)cc3)n2)CC1 was read as STK33 kinase inh -0.1.
For CN(C)CC(O)COC(c1ccccc1)c1ccccc1 (stereo unspecified) the results were STK33 kinase inh -1.1.
For CC1=CC(=O)[C@H]2C(C)(C)CCC[C@]2(C)[C@@]1(O)CO the results were STK33 kinase inh 0.0.
`CC(=O)c1c(C)oc2ccc(NS(=O)(=O)c3ccccc3)cc12` gave STK33 kinase inh 0.1.
Screening COc1ccccc1C/C(N)=N/OC(=O)c1cccc([N+](=O)[O-])c1C returned STK33 kinase inh -2.4.
For O=C(Cn1nnc2ccccc21)OCC(=O)c1ccc(Cl)cc1 the results were STK33 kinase inh -0.6.
Screening Cc1ccc(S(=O)(=O)N(C)CC(=O)Nc2ncccc2C)cc1 returned STK33 kinase inh -0.9.
CC(C)CN(CC(C)C)S(=O)(=O)N1CCC(C(=O)NC2CCCCCCC2)CC1 was read as STK33 kinase inh -1.6.
Screening COc1ccc(CN2CCN(Cc3cccc(F)c3)CC2)cc1OC returned STK33 kinase inh 0.1.
Cc1ccnc(NC(=O)c2ccc3c(c2)C(=O)N(CC2CCCO2)C3=O)c1 (stereo unspecified) was read as STK33 kinase inh 0.3.
`CCOC(=O)C1CCCN(C(=O)c2cc(S(=O)(=O)Nc3ccccc3OC)ccc2C)C1` (stereo unspecified) gave STK33 kinase inh -0.6.
Screening O=c1oc2ccccc2cc1-c1csc(Cc2nc(-c3ccc(Cl)cc3)cs2)n1 returned STK33 kinase inh -1.2.
Screening COc1cccc(-c2cc(C(=O)Nc3nc4ccccc4s3)c3ccccc3n2)c1 returned STK33 kinase inh -1.9.
COc1ccc(C(=O)Oc2ccc3oc(=O)sc3c2)cc1 was read as STK33 kinase inh -2.9.

4 successive entries out of the list so far:
`CCOC(=O)C1CCCN(C(=O)c2cc(S(=O)(=O)Nc3ccccc3OC)ccc2C)C1` (stereo unspecified) gave STK33 kinase inh -0.6.
Screening O=c1oc2ccccc2cc1-c1csc(Cc2nc(-c3ccc(Cl)cc3)cs2)n1 returned STK33 kinase inh -1.2.
Screening COc1cccc(-c2cc(C(=O)Nc3nc4ccccc4s3)c3ccccc3n2)c1 returned STK33 kinase inh -1.9.
COc1ccc(C(=O)Oc2ccc3oc(=O)sc3c2)cc1 was read as STK33 kinase inh -2.9.

Other compounds follow:
For CCn1nc(NC(=O)COC)c2cc3cccc(C)c3nc21 the results were STK33 kinase inh 2.1.
Screening CN(C)S(=O)(=O)c1ccc(C(=O)Nc2cc3c(cc2C(=O)O)OCCCO3)cc1 returned STK33 kinase inh 0.0.
For CCOC(=O)c1sc2c(c1C)c(=O)n(Cc1ccccc1)c(=O)n2CCN(C)C the results were STK33 kinase inh 0.0.
For S=c1[nH]nc(Cc2n[nH]c(=S)n2-c2ccccc2)n1-c1ccccc1 the results were STK33 kinase inh -1.2.
O=C(c1ccc(N2CCN(C(=O)c3ccc(F)c(F)c3)CC2)cc1)c1cccc(F)c1 was read as STK33 kinase inh 10.8.
CCCCn1nc2cc(C(=O)NCCc3cccs3)ccc2c1OCC was read as STK33 kinase inh -0.6.
Screening OCc1cn(-c2ccccc2)nc1-c1ccco1 returned STK33 kinase inh 1.7.
For CC(C)(C)NC(=O)C(c1ccncc1)N(C(=O)Cn1nnc(-c2cccs2)n1)C1CCCCC1 (stereo unspecified) the results were STK33 kinase inh 0.4.
`CC(C)(C)NS(=O)(=O)c1ccc(OCC(=O)NCc2ccco2)cc1` gave STK33 kinase inh -0.7.
For Oc1ccc(Br)cc1CN1CCCCCCC1 the results were STK33 kinase inh 4.6.
Screening Cc1noc(C)c1COc1ccc(C(=O)O)cc1 returned STK33 kinase inh -1.4.
Screening Cc1cc(C(C)(C)C)c(O)c(C)c1CC1=NCCN1 returned STK33 kinase inh -2.5.
`CCOC(=O)C(Cc1ccc(OC)c([N+](=O)[O-])c1)NC(=O)CCC(=O)Nc1ccc(C)cc1` (stereo unspecified) gave STK33 kinase inh -0.2.
For O=C(CCCCCn1c(=O)[nH]c2ccsc2c1=O)NCc1ccc(F)cc1 the results were STK33 kinase inh -0.4.
`O=C(O)CCC(=O)NN1C(=O)c2ccccc2NC1c1ccco1` (stereo unspecified) gave STK33 kinase inh -2.5.
Screening COc1ccc(-c2csc(Cc3nnc4n3CCCCC4)n2)cc1 returned STK33 kinase inh -1.9.
`Cc1cn(C(=O)c2ccccc2)c(=S)n1-c1ccc(Br)cc1` gave STK33 kinase inh 0.6.
`O=[N+]([O-])c1cc(Cl)ccc1NCCc1ccccn1` gave STK33 kinase inh 1.1.
